Ecoli rRNA inh: inhibitors of bacterial rRNA selective over humanized ribosomes; E. coli WT GFP vs humanized-ribosome RFP mutants, fluorescence, 24 h; active compounds read low; DMSO median 0, no signal -100; actives 1.6% (n = 350,000); GFP signal change (wild-type ribosome), % (test concentration not listed);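 active = significant combined selectivity score with lowered wild-type GFP, culture density cut under 30%, mutant RFP and density less affected; inactive = any of these conditions unmet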; also: one replicate is shown; some compounds called inactive have numbers as strong as hits
RanGTP-Impb inh: disruptors of Ran-importin-beta complex formation – biochemical, FRET, CFP-Ran, YFP-importin-beta, homogeneous, primary screen. cell-free CFP-Ran/YFP-importin-beta FRET ratio. inhibition, % (concentration not given with the values). actives 1.1% (n = 300,000);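 active = most replicates above 15%; inconclusive = exactly half above 15%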;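 also: 0% = DMSO wells and 100% = Ran loaded with GDP instead of GTP; wells of about 40 µL received 100 nL stock; the first replicate is given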
FGF22 binding: shifts melting point of recombinant human FGF22 | recombinant FGF22 thermal shift, SYPRO orange fluorescence; percent of sucrose octasulfate shift, DMSO zero | actives 1.5% (n = 340,000) | calls only at 9.99 µM;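 active = melting point raised past a set limit in the mean and every replicate; inconclusive = no clear call; three in four hits are not shown here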
Target sequence (Q9HCT0 whole entry, looked up): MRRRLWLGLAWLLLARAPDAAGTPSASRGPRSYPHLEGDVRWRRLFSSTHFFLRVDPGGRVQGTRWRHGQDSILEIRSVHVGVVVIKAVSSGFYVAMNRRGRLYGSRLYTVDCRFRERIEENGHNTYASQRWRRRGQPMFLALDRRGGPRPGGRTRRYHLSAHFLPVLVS
Beta apoptosis: blocks beta cell apoptosis; INS-1E cytokine-induced death, ATP luminescence, 48 h; percent of positive-control rescue, neutral wells zero; protection from apoptosis, % (test concentration not listed); actives 0.8% (n = 300,000); AID 435005;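 active = all replicates at 75% or more, or half of them and the mean; inconclusive = half reach 75% but not the mean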;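 also: 0% = cytokine-treated negative control wells and 100% = positive control rescue; higher means more ATP so stronger rescue from cytokine killing; wells of about 40 µL received 100 nL stock; the first replicate is given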
ALR inh: blocks human ALR sulfhydryl oxidase activity | P55789 | purified ALR, DTT oxidation, H2O2 HRP-luminol luminescence | inhibition, % (no concentration beside the values) | actives 3.8% (n = 290,000) | AID 485317;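 active = mean and each replicate at 75% or more; inconclusive = only one of the two met; inactive = neither met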;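 also: stock transfer was 7.5 nL into about 7.5 µL; 0% = neutral wells and 100% = wells with inactivated enzyme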
Target sequence (P55789 whole entry, looked up): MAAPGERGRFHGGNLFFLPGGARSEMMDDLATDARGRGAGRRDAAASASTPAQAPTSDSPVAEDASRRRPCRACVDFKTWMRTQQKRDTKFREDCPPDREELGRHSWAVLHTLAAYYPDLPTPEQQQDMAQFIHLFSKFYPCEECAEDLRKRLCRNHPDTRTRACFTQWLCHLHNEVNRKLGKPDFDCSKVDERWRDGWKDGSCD
Calb FLC: affects C. albicans growth with fluconazole | C. albicans CaCi-2 (fluconazole-resistant clinical isolate) + fluconazole, Alamar Blue growth, 48 h | growth inhibition, % (concentration not given with the values) | actives 0.57% (n = 300,000) | AID 1979;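 active = most replicates above 75%; inconclusive = exactly half above 75%; inactive = most below 75%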;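 also: all wells also contain fluconazole at 8 µg/ml as a sub-toxic cotreatment; 0% = median of DMSO wells and 100% = median of geldanamycin control wells; wells of about 8 µL received 7.5 nL stock; the first replicate is given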
T cruzi inh: T. cruzi replication inhibition. actives 1.4% (n = 300,000). inhibition, % (no concentration beside the values). T. cruzi beta-gal in NIH3T3, luminescence, 90 h;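 active = mean inhibition across valid replicates above about 55%, limit read from the data; inconclusive = mean below that limit but half or more replicates reach it; inactive = mean below it, under half of replicates reach it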;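 also: signal also drops with host cell toxicity which is not excluded here; 0% = plate median of DMSO wells and 100% = zero luminescence signal; higher percent means less beta-gal luminescence so fewer parasites; stock transfer was 50 nL into about 50 µL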
MLL AF4-AF9 inh: blocks AF4 peptide binding to human AF9. P42568. AlphaScreen, biotin-AF4 peptide binding to FLAG-AF9. inhibition, % at 10 µM. actives 0.47% (n = 350,000);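 active = every replicate reaching a set inhibition limit, whatever the replicate mean, cut at about 25% in these data; inconclusive = mean inhibition reaches that limit but some replicates miss it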;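 also: 0% = plate neutral control median and 100% = total signal loss; the record names both 10 and 1 µM as test concentration; the first replicate is given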
Target sequence (P42568 whole entry, looked up): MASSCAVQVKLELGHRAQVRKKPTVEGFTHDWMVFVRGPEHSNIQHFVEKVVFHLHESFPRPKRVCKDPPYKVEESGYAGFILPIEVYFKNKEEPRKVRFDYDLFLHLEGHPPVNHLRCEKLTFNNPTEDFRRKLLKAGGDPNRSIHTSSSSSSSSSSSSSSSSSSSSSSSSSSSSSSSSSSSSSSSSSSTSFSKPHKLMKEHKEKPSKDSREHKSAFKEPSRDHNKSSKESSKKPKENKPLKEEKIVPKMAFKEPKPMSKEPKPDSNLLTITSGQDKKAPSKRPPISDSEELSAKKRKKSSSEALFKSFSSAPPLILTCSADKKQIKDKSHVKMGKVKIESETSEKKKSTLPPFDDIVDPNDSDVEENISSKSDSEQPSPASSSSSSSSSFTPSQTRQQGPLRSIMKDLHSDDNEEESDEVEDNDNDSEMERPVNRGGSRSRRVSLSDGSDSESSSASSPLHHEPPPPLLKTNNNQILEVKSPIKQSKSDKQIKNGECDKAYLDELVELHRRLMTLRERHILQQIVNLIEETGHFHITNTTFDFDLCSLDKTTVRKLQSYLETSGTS
Ecoli rRNA inh OD600: second read-out of Ecoli rRNA inh, no call of its own (marks repeat the call); OD600 change, %; measured here: OD600 growth;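 optical density of the mix in the first replicate; 0 = DMSO median and -100 = no signal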
Ecoli rRNA inh RFP: second read-out of Ecoli rRNA inh, no call of its own (marks repeat the call); RFP signal change, %; measured here: RFP humanized mutant strains;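 first replicate; 0 = DMSO median and -100 = no signal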
* hit, by the source's call; i = inactive; ? = inconclusive; · = no result given. This is a subset, so the mix of outcomes need not match the whole.

SMILES,Ecoli rRNA inh,Ecoli rRNA inh OD600,Ecoli rRNA inh RFP,RanGTP-Impb inh,FGF22 binding,Beta apoptosis,ALR inh,Calb FLC,T cruzi inh,MLL AF4-AF9 inh
CCC(=O)NCCSc1c[nH]c2ccccc12,·,·,·,-1.8,·,3,56,3,7,·
CCCN1C(=O)c2cc(C(=O)Nc3ccccc3OC)ccc2C1Nc1ccccc1OC (stereo not drawn),-12,-20,12,4.2,i,1,-3,-1,-8,15
Cc1cc(C)n(-c2ccc(C(=O)OCC(=O)NC(c3ccccc3)c3ccccc3)cc2)n1,13,9,0.4,0.9,i,·,33,4,-13,3.4
CC(C(=O)O)N1C(=O)CSC1=S (stereo not drawn),·,·,·,-2.8,·,-3,·,-6,-6,·
COc1ccc(N2CCCn3c2nc2c3c(=O)n(CCc3ccccc3)c(=O)n2C)cc1,·,·,·,0.9,·,7,-3,?,29,·
COc1cccc(-n2nnnc2SCC(=O)Nc2ccccc2OC)c1,1,-7,2.4,-1.8,i,-2,-1,-3,1,-0.6
Cc1cccc(NC(=O)COc2coc(CN3CCN(Cc4ccccc4)CC3)cc2=O)c1,4,12,2.4,2.5,i,·,-3,-8,53,-1.1
c1csc(-c2nn3c(C4COc5ccccc5O4)nnc3s2)c1 (stereo not drawn),·,·,·,-1.8,·,2,-4,-3,-5,·
O=C(Nc1ccc(OC(F)(F)F)cc1)NC1CCC(Oc2ccc(C(=O)O)cc2)CC1 (stereo not drawn),-4,18,-2.7,·,i,-3,3,·,·,-1.6
COc1ccc(-n2c(=S)[nH]c3cc(C(=O)Nc4cccc(C)c4)ccc3c2=O)cc1,-4,5,11,-4.9,i,-3,-3,16,-14,-6.3
CCSc1nc2ccccc2n1C(=O)c1ccc(S(=O)(=O)N2CCCCCC2)cc1,·,·,·,-2.9,·,-7,-15,1,-23,·
C=CC(=O)NC1CC2CCC1(C)C2(C)C (stereo not drawn),-2,-9,-1.8,0.3,i,-2,-3,-1,-7,-6.5
COc1cccc(CNC(=O)C2CCN(c3nnc(N4CCCC4=O)s3)CC2)c1,1,4,-1.4,-3.3,i,-5,-13,-5,6,-1.9
CC(C)[C@H](NC(=O)c1ccccc1F)C(=O)NNC(=O)c1cccs1,3,10,-2.5,·,i,-3,1,·,·,-4.4
CCN(CC(=O)NCc1ccc(Cl)cc1)CC(=O)NC1(C#N)CCCC1,-1,0,5.4,4.9,i,-1,-19,2,0,1.0
Cn1c(NN)nc2sc3c(c2c1=O)CC(C)(C)OC3,·,·,·,-5.4,·,1,-12,10,-9,·
CCOC(=O)c1nc(Nc2ccccc2C)c2ccccc2n1,-1,-10,-8.2,?,i,2,0,37,-1,-1.1
CCOC(=O)N=S(N)(=O)c1ccccc1 (stereo not drawn),15,12,-7.9,3.2,i,-3,-8,15,-3,8.8
CCN(C(=O)COC(=O)c1cccnc1SC)c1c(N)n(Cc2ccccc2)c(=O)[nH]c1=O,5,23,1.1,·,i,0,-1,·,·,0.0
CC1Sc2ccc(S(=O)(=O)CCC(=O)N3CCCCC3)cc2NC1=O (stereo not drawn),3,6,-4.0,2.6,i,-6,-2,-4,16,-1.1
O=C(NC1CC1)C1CCN(S(=O)(=O)c2ccc(Cl)cc2)CC1,6,8,-1.2,1.2,i,1,·,4,-2,-2.0
COc1ccccc1CNC(=O)C1CCN(S(=O)(=O)c2ccc(-n3cnnn3)cc2)CC1,-5,0,-0.1,-0.8,i,3,·,-8,6,-4.6
COc1cc(CN2CCCC(N3CCc4ccccc4C3)C2)c(Cl)cc1O (stereo not drawn),10,8,0.6,?,i,1,·,6,50,13
CCSc1nnc(NC(=O)C2CCCCC2C(=O)OCC(F)(F)C(F)F)s1 (stereo not drawn),·,·,·,0.2,·,2,-3,8,-5,·
Cc1ccsc1C(=O)Nc1n[nH]c(C(F)(F)F)n1,7,16,4.1,-1.6,i,-11,·,8,0,-2.0
O=C(CN(Cc1ccccc1)S(=O)(=O)c1ccc2c(c1)OCCO2)Nc1ccc2c(c1)OCCO2,-13,-4,12,-2.6,i,-5,-4,-11,8,3.6
CC(=O)N1N=C(c2ccccc2O)CC1c1cccs1 (stereo not drawn),8,0,-4.7,1.0,i,·,10,-1,-6,3.3
CCOC(=O)C1CCN(C(=O)CNC(=O)c2nn(-c3ccc(OC)cc3)c(=O)c3ccccc23)CC1,-1,-7,4.0,0.4,i,-3,0,6,0,1.2
Cc1ccccc1OCC(=O)NCC(=O)N/N=C/c1ccc(Br)o1,·,·,·,0.6,·,-10,0,-27,37,·
Cc1cccn2c(=O)c3cc(C(=O)NC4CCCCCC4)sc3nc12,7,11,0.9,19*,i,7,·,-12,16,-4.9
CCCC(=O)Nc1ccc2c(c1)nc(CN1CCCCC1)n2C,·,·,·,·,·,-6,-4,1,6,·
CC(NC(=O)C1CCC1)c1ccc(Br)cc1 (stereo not drawn),-12,-8,-7.8,?,i,-2,-5,-4,-10,0.5
CCOC(=O)C1(CCc2ccccc2)CCN(C(=O)CN2C(=O)CSC2=O)CC1,-10,-13,0.9,-2.8,i,4,-34,-5,6,-0.3
O=C(O)c1c(C(=O)O)c(-c2ccc(Br)cc2)n2c1CSC2,29,7,6.1,?,i,0,98*,1,-21,-4.2
Cc1cc(SCC(=O)Nc2c(C)n(C)n(-c3ccccc3)c2=O)nc2ccccc12,-14,-4,-3.5,3.1,i,3,0,5,-9,-7.9
CCCC(=O)Nc1ccc(Oc2ccc(NC(=O)CCC)cc2)cc1,·,·,·,3.9,·,2,-21,-30,-2,·
O=c1c2cn(Cc3ccc(F)cc3)c3ccc(F)cc3c-2nn1Cc1ccc(F)cc1,16,16,1.4,-6.8,i,·,·,2,3,-4.5
Cc1ccccc1Oc1nc2c(C)cccn2c(=O)c1/C=C(\C#N)C(=O)Nc1c(C)n(C)n(-c2ccccc2)c1=O,-4,-11,2.0,1.7,i,-15,34,1,13,7.0
COc1cccc(CNC(=O)CCC2CCCN(C(=O)c3ccc(OC)o3)C2)c1 (stereo not drawn),-6,-4,-7.6,3.5,i,1,·,5,6,-2.2
O=C(Nc1ccc(F)cc1)c1nsc(Cl)c1Cl,·,·,·,-5.0,·,4,0,-4,-6,·
COc1ccc(C2COC(=O)C2=N)c(NC(=O)c2ccc(Cl)cc2)c1 (stereo not drawn),8,17,12,11,i,2,16,?,-14,4.4
COC(=O)c1ccc(NC(=O)CSc2nnnn2C2CCCCC2)cc1,·,·,·,0.4,·,1,-6,-26,-3,·
O=C(O)CCN1/C(=C/C=Nc2ccccc2)Oc2ccccc21,·,·,·,-9.3,·,-8,-22,-7,-13,·
CCCN(CC1CCCO1)C(=O)CCc1nnc(-c2cc(C)on2)o1 (stereo not drawn),1,13,0.5,-1.1,i,-8,7,3,-12,-2.8
CCc1ccccc1OCC(=O)Nc1cc(S(=O)(=O)N(CC)CC)ccc1N1CCOCC1,9,8,5.6,·,i,9,-4,·,·,-1.9
COc1ccc(NC(=O)c2ccc(NC(=O)CSc3nc(N)cc(=O)[nH]3)cc2)cc1,6,16,1.1,·,i,-9,10,·,·,-5.1
Cc1nn(CC(=O)Nc2ccncc2)c(C)c1[N+](=O)[O-],·,·,·,1.2,·,-3,1,-9,1,·
CCc1ccc2[nH]c(=O)c(CN(Cc3ccc4c(c3)OCO4)Cc3nnnn3C3CCCC3)cc2c1,4,-4,-2.1,1.7,·,25,-4,-15,49,?
C=CCNc1nc(NCCN2CCOCC2)nc(N2CCOCC2)n1,·,·,·,-2.6,·,-10,1,-15,-3,·
CC(C)c1ccc(NC(=O)NN2CCOCC2)cc1,14,17,-0.5,-0.3,i,-3,-5,-13,-2,-0.6

Following part
SMILES,Ecoli rRNA inh,Ecoli rRNA inh OD600,Ecoli rRNA inh RFP,RanGTP-Impb inh,FGF22 binding,Beta apoptosis,ALR inh,Calb FLC,T cruzi inh,MLL AF4-AF9 inh
O=C(Nc1ccccc1)C1CCCN1C(=O)NCc1ccccc1 (stereo not drawn),·,·,·,0.5,·,0,-9,-42,-3,-2.2
Cc1ccc(C)c(N2CCN(S(=O)(=O)c3cc4c(cc3C)NC(=O)CO4)CC2)c1,1,-4,3.9,-1.9,i,-5,·,-3,23,-12
CCN(C(=O)COC(=O)c1cncc(Br)c1)C1CCS(=O)(=O)C1 (stereo not drawn),16,14,3.9,-0.6,i,-5,2,-5,-11,-1.7
COc1ccc(C2=C(c3ccc([N+](=O)[O-])cc3)C(=O)OC2)cc1,-15,-6,3.0,-2.2,i,6,-2,5,2,0.3
CCc1ccccc1N(CC(=O)N1CCN(c2ccccc2)CC1)S(C)(=O)=O,·,·,·,0.7,·,2,98*,27,-4,·
Cc1ccc(Cl)cc1NC(=S)N(CCCN1CCN(C)CC1)Cc1cccs1,-3,0,4.6,2.8,·,·,22,-6,6,5.6
CC(=O)c1cn(CC(=O)Nc2ccccc2F)c2ccccc12,7,2,-3.5,-0.9,i,2,-5,3,4,-0.2
O=CNCC(=O)NCCc1ccc(Cl)cc1,·,·,·,-1.1,·,0,-4,0,-4,·
COc1ccc(NC(=O)c2sccc2C)cn1,4,3,-0.9,-1.3,·,4,3,-3,-15,0.9
O=C(CSc1nnc(NC2CCCCC2)s1)NN1C(=O)NC2(CCCCC2)C1=O,·,·,·,-2.1,·,-3,-1,1,3,·
COCCCNc1oc(-c2cccs2)nc1S(=O)(=O)c1ccc(C)cc1,-22,-32,-4.5,2.3,i,0,44,-16,-2,2.4
c1ccc(Cn2nnc3c(NCC4CCCO4)ncnc32)cc1 (stereo not drawn),·,·,·,-0.8,·,-3,-3,9,-9,·
O=C(CN1c2cccc3cccc(c23)S1(=O)=O)Nc1c(F)c(F)c(F)c(F)c1F,·,·,·,·,i,-2,-6,·,·,-0.3
O=C(c1cccc(Cl)c1)N1CCN(CCCc2ccccc2)CC1,0,-2,1.6,-2.5,i,-11,-15,-4,-3,1.9
CCn1ncc2c1C(=O)NC1c3ccccc3C(=O)N21 (stereo not drawn),·,·,·,-0.5,·,1,11,-2,-4,·
O=C(Nc1cccc(S(=O)(=O)NC2=NCCC2)c1)c1cc(=O)[nH]c2ccccc12,-5,4,-1.6,·,i,-7,-2,·,·,6.3
COc1ccc(N)c2c1C(=O)c1ccccc1C2=O,·,·,·,-30,·,7,-1,5,-3,·
CC1=C(C(=O)OCC2CCCO2)C(c2coc3ccc(Cl)cc3c2=O)C2=C(CCCC2=O)N1 (stereo not drawn),-8,-11,1.5,-0.5,i,0,5,-6,6,6.5
CC(C)(C)SCCNC(=O)c1cccc([N+](=O)[O-])c1,·,·,·,3.7,·,-5,20,-6,-5,·
CC(=O)N(C(C)=O)n1c(C)nc2sc3c(c2c1=O)CCCC3,18,11,-0.5,-2.1,i,-9,97*,-12,-2,-3.9

High-throughput results: PubChem, Broad Institute
